# TAR Tat displ – HIV-1 TAR-Tat binding disruption | HIV-1 TAR RNA, Tat peptide displacement FRET; stronger effect = higher value | z-score (concentration not given with the values) | 100,000 tested, 0.6% active;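 also: score is relative to mean and SD of negative controls; some compounds called inactive have numbers as strong as hits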
# CDC25B-CDK2 inh – human CDC25B-CDK2/CyclinA binding inhibition; z-score (no concentration beside the values); 94,000 tested, 0.72% active; P30305+P24941; HTRF CDC25B-CDK2/CyclinA binding, anti-His/anti-Flag; stronger effect = higher value;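 also: score is relative to mean and SD of negative controls; strong numbers were not always called active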
# Numbers without * were called inactive; / = not tested or not shown.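 The calls were made as follows: active = z-score from 3 up in half or more of its runs; inactive = the rest.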
mol	TAR Tat displ	CDC25B-CDK2 inh
CCc1ccc(-c2cn3nc(CC)sc3n2)cc1	1.7	0.37
O=C1NN(c2cccc(Cl)c2)C(=O)/C1=C\c1ccc(-c2ccc3c(c2)C(=O)NC3=O)o1	/	-2.4
CCCSc1nnc(NC(=O)c2cc(-c3ccc4c(c3)OCCO4)on2)s1	0.26	-1.9
c1csc(-c2nc(-c3ccc4c(c3)ncn4C3CCCC3)no2)c1	1.4	/
COC(OC)(C(C#N)c1ccccc1)C(F)(F)F (configuration not stated)	/	-1.8
OC(CNCCc1ccccc1)Cn1nnnc1-c1ccccc1 (configuration not stated)	0.45	-0.33
CN(CCc1ccncc1)[C@H]1CS(=O)(=O)C[C@@H]1S(=O)(=O)c1ccccc1	0.65	-1.6
CC(C)(C)c1nnc2sc(COc3ccccc3)nn12	1	-0.65
Cn1cc(CCCC(=O)N2CCCC2)c2ccccc21	0.44	/
Cc1ccc(-n2c(C)nc3ncnc(-c4ccccc4)c32)cc1	0.09	-1.3
CC(C)Cc1nc2cccnc2n1C1CCN(Cc2ccccc2)CC1	-3.1	/
COc1ccc(NC(=O)c2cnn3c2NC(c2ccco2)CC3C(F)(F)F)cc1OC (configuration not stated)	-2.2	-0.71
Cc1ccc(C2C=C(C(=O)O)Nc3nnnn32)cc1C (configuration not stated)	0.18	/
Cc1cccc(-c2nc3ncccn3c2NCc2ccc(Cl)cc2)c1	-0.85	/
c1ccc2c(c1)c(N1CCN(Cc3ccc4c(c3)OCO4)CC1)nn1nnnc21	-0.42	-0.41
Cc1ccc(OCc2ccc(-c3nc(C#N)c(NC4CCCCC4)o3)o2)cc1	0.03	-0.07
O=S(=O)(Nc1ccc(Br)cc1)c1cccs1	-0.01	1
CCn1nnc(NCc2cccc3ccccc23)n1	0.24	/
CCCSc1ncc(Cl)c(C(=O)Nc2nc3ccc(S(C)(=O)=O)cc3s2)n1	1.9	1.1
C#CCCCCCCCCCCCC(O)CC(O)COC(C)=O (configuration not stated)	1	/

# Other entries
mol	TAR Tat displ	CDC25B-CDK2 inh
CNC1(c2nnnn2-c2c(C)cccc2C)CCCC1	0.83	/
CCOC(=O)C1=C(N)Oc2cc(O)ccc2C1c1ccc(F)cc1F (configuration not stated)	-2.3	-1.8
COc1ccc(-c2nc3c4c(C)c(C)n(-c5ccc(OC)cc5)c4ncn3n2)cc1	0.61	-1.2
CC(C)C1Cc2[nH]c(=O)c(C(=O)O)cc2CO1 (configuration not stated)	-0.43	0.11
CC(C)CNC(=O)C(=O)NCc1ccco1	0.74	-0.24
Cc1ccccc1N1C(=O)N(c2cccc(C)c2C)C2CS(=O)(=O)CC21 (configuration not stated)	-0.99	-2
O=c1[nH]c2ccccc2c(=O)n1CCc1nc(-c2ccccc2)no1	1.4	0.07
CCN(CC)S(=O)(=O)c1ccc2c(c1)N(CCCC(=O)N1CCCC1)C(=O)C1CCCN21 (configuration not stated)	-1.1	/
CN(C)C(CNC(=O)c1cc(-c2cccs2)on1)c1cccs1 (configuration not stated)	-1.2	-0.87
Cc1c(C(=O)N2CCC(C)CC2)c(S(=O)(=O)NC2CC2)c(C)n1C	0.4	/
COc1ccc(Br)cc1C1=NN(C(C)=O)C(c2cnccn2)O1 (configuration not stated)	1.1	/
O=C1NC(c2ccc(F)cc2)c2c(-c3ccccc3)n[nH]c21 (configuration not stated)	/	-1.4
O=C(O)c1cc(O)c2c(c1)[C@@H]([C@H]1c3cc(C(=O)O)cc(O)c3C(=O)c3c(O[C@H]4O[C@H](CO)[C@@H](O)[C@H](O)[C@H]4O)cccc31)c1cccc(O[C@H]3O[C@H](CO)[C@@H](O)[C@H](O)[C@H]3O)c1C2=O	22*	/
C=CCSc1nc2c(c(=O)[nH]1)C(c1ccc(F)cc1)C(C(=O)OC)=C(C)N2 (configuration not stated)	0.7	1.1
CCOC(=O)Oc1ccc2c(=O)c(Oc3ccc(C(C)(C)C)cc3)coc2c1	1.1	-0.09
Cc1cc(C)c2c(-n3cccc3)nn(CC(=O)NCc3ccc(C)o3)c2n1	0.62	/
Cn1c(SCC(=O)Nc2nc3ccccc3s2)ncc(C(=O)Nc2ccccc2)c1=O	0.03	/
COC(=O)CN1C(=O)C(O)(CC(=O)c2ccc(C)cc2)c2cc(Br)ccc21 (configuration not stated)	1.7	0.38
Cc1c(C(=O)NCc2ccc3c(c2)OCO3)oc2ccc3c(c12)C(O)CC1(CCCCC1)O3 (configuration not stated)	0.74	/
Cc1c(NCN2C(=O)CCC2=O)cc2c(c1[N+](=O)[O-])C(C)(C)CC2(C)C	/	-0.43

# The closing 2 entries of the section before are carried over, then new ones follow:
mol	TAR Tat displ	CDC25B-CDK2 inh
Cc1c(C(=O)NCc2ccc3c(c2)OCO3)oc2ccc3c(c12)C(O)CC1(CCCCC1)O3 (configuration not stated)	0.74	/
Cc1c(NCN2C(=O)CCC2=O)cc2c(c1[N+](=O)[O-])C(C)(C)CC2(C)C	/	-0.43
COC(=O)Cn1cc(-c2nnc(CN3CCCCC3)o2)c2ccccc21	1.2	-0.21
CCCNc1nc(NCc2ccccc2C)c2cnn(C)c2n1	1.1	/
Cc1csc2ncc(C(=O)NCc3ccc4c(c3)OCO4)c(=O)n12	-1.2	-1.2
Cc1cccc2nc(-c3ccsc3)c(Nc3ccc4c(c3)OCO4)n12	/	-3.1
COC(=O)c1cc(S(=O)(=O)N(C)C2CCCCC2)cn1C	0.47	-1.4
CCOC(=O)C1=C(N)C(=O)N(c2ccccc2)C1	/	-0.31
O=C1c2ccccc2-c2onc3c(N4CCCCC4)cc(N4CCN(C(=O)c5ccco5)CC4)c1c23	0.52	-0.51
CC1=CC2(C#N)C3(N=C(N)C2(C#N)C(c2ccccc2)N1)OCCO3 (configuration not stated)	/	0.12
Cc1ccccc1CNCCSc1nnnn1C	-0.53	-1.5
CCN(CC)S(=O)(=O)c1ccc2c(c1)CC(C(=O)NCCN(C)C)N2C(C)=O (configuration not stated)	0.75	/
O=C(Nc1cccc(OCc2cc(=O)n3nc(C4CCCCC4)sc3n2)c1)c1ccco1	-0.54	0.85
COc1ccc2ncc(S(=O)(=O)c3ccc(Cl)cc3)c(N3CCN(C)CC3)c2c1	-1.1	-1.6
COc1cccc2c1Oc1ncccc1N(c1ccc(C(=O)NCC3CCCO3)s1)C2 (configuration not stated)	0.22	/
Cc1c(N2CCN(S(=O)(=O)c3ccc(F)c(F)c3)CC2)c(=O)n(C)c(=O)n1-c1ccccc1	0.49	/
O=[N+]([O-])c1ccc2c(c1)c(CO)cn2Cc1ccccc1	/	1.8
O=C(CCS(=O)(=O)c1ccc2c(c1)NC(=O)CS2)Nc1ccc(F)c(Cl)c1	-1.7	/
N#Cc1cc2c(=O)n3ccccc3nc2n(-c2ccc(F)cc2)c1=O	1.3	1.5
O=C(O)Cn1c(=O)c2cccn2c2ccccc21	-1.9	/
Cc1cc(=O)[nH]c(SCc2cc(=O)n3nc(SC(C)C)sc3n2)n1	1.4	-1.6
CN(C)CCNc1nc(N2CCN(C)CC2)c2cnn(C)c2n1	-0.73	/

# More entries follow:
mol	TAR Tat displ	CDC25B-CDK2 inh
O=C(CCc1nc2sc3c(c2c(=O)[nH]1)CCCCC3)NCc1cccs1	0.77	/
Cc1cccc(S(=O)(=O)NCc2cn3ccccc3n2)c1	/	-0.59
O=C(c1cc(-c2cccs2)on1)N(Cc1cccc(Cl)c1)C1CCS(=O)(=O)C1 (configuration not stated)	0.61	-0.29
NC1=CC(=O)c2ccccc2C1=O	/	1.2
CC(=O)N1CCc2cc(S(=O)(=O)CCC(=O)NCc3ccc(C)o3)ccc21	-0.92	/
Cc1ccc(C(=O)CC2(O)C(=O)N(Cc3ccccc3C)c3ccccc32)cc1 (configuration not stated)	/	0.47
O=C(c1cnc2ccccc2c1S(=O)(=O)c1ccccc1)N1CCOCC1	0.8	/
COCC(=O)C(C=Nc1ccc(Cl)cc1Cl)C(=O)OC (configuration not stated)	/	-1.4
Cc1cc(C)n2nc(NC(=O)c3cccnc3)nc2n1	-0.84	-1.4
Cc1nc(CC(=O)Nc2nccs2)cs1	0.14	-2.8
CC(NCc1ccccc1)c1ccccc1O (configuration not stated)	/	-2.3
CC1=C(c2ccc(C)c(C)c2)S(=O)(=O)NC1=NCCCN1CCCC1=O	-0.44	-1.7
CCCOC(=O)C(C)n1nnc2sc(-c3ccccc3)cc2c1=O (configuration not stated)	0.59	-2
CC1=C(c2ccc(F)cc2)S(=O)(=O)N=C1N1CCC(C)CC1	-1.3	/
O=C(O)CC(Sc1nc2sc3c(c2c(=O)[nH]1)CCCC3)C(=O)O (configuration not stated)	1.5	-0.27
Cn1c(NCC(O)CO)nc2c1c(=O)n(Cc1ccccc1Cl)c(=O)n2C (configuration not stated)	0.47	0.46
CN(C)/C=N/N=C/c1cc(Cl)cc(Cl)c1O	/	-2.4
C[C@@H]1C(=O)[C@H](C)[C@@H](c2cccs2)N(C(=O)Nc2cccc(Cl)c2)[C@H]1c1cccs1	-0.75	-0.46
CN(C(=O)C1CCC(CNS(=O)(=O)c2cccc3cccnc23)CC1)C1CCCCC1 (configuration not stated)	-1.4	-0.36
COc1ccccc1-n1c(=O)[nH]c2c(C(N)=O)nc(C)nc21	0.92	/

# Three entries picked at random from the list so far, as already listed:
mol	TAR Tat displ	CDC25B-CDK2 inh
CC(C)Cc1nc2cccnc2n1C1CCN(Cc2ccccc2)CC1	-3.1	/
Cn1cc(CCCC(=O)N2CCCC2)c2ccccc21	0.44	/
CC(C)(C)c1nnc2sc(COc3ccccc3)nn12	1	-0.65

# (listing goes on)
mol	TAR Tat displ	CDC25B-CDK2 inh
C/C(=N\O)c1oc(C)nc1C	/	-1.9
O=C(c1ccc(CS(=O)c2cccc(Cl)c2)o1)N1CCOCC1 (configuration not stated)	2.1	/
Cc1cccc(NS(=O)(=O)c2c(C)nc3sc4cc(C)ccc4n3c2=O)c1	0.4	/
CC(C)Cc1nc(SCC(=O)N2CCc3ccccc32)c2c(=O)n(C)c(=O)n(C)c2n1	-0.18	/
Cc1ccc(-n2cnc3cc(NCc4ccncc4)ccc32)cc1	-0.08	3.5
COc1ccc2nc(NC(=O)C3CCCN3S(=O)(=O)c3cccc4cccnc34)sc2c1 (configuration not stated)	/	-1.9
C[C@H](NC(=O)[C@@H]1CCCN1C(=O)[C@@H]1CCCN1C(=O)[C@@H](O)[C@H](N)Cc1ccccc1)C(N)=O	1.3	/
c1coc(CNc2ncnc3ccccc23)c1	-0.48	-1.1
CC(=O)N1CCSc2ccc(S(=O)(=O)N(C)Cc3ccco3)cc21	1.9	/
c1ccn2cc(C34CC5CC(CC(C5)C3)C4)nc2c1	/	-0.99
CC(=O)N1CCOc2cc(S(=O)(=O)Nc3ccc(Br)c(C)c3)c(C)cc21	1.6	/
CCOC(=O)N1CCC(Nc2nn3nnnc3c3ccccc23)CC1	0.36	/
COc1ccccc1CNS(=O)(=O)c1cccs1	1.2	-0.78
COc1cc(C2C(C(=O)OC(C)C)=C(C)NC3=C2C(=O)CCC3)ccc1O (configuration not stated)	0.1	-0.15
CCC(C)NC(=O)Nc1ccc2nc(NS(=O)(=O)c3ccccc3)sc2c1 (configuration not stated)	0.44	/
CCCOCCOC(=O)C1=C(C)NC2=C(C(=O)CCC2)C1c1ccc2c(c1)OCO2 (configuration not stated)	1.9	/
CCC(C)OC(=O)Cn1nnc2sc3c(c2c1=O)CCC(C)C3 (configuration not stated)	-0.42	0.07
O=C(c1nc(-c2ccc(Cl)cc2)n2c1CCCCC2)N1CCN(c2ncccn2)CC1	1.3	/
CC(C)CC(O)(c1ccc(O)cc1)C(CN1CCOCC1)c1ccccc1 (configuration not stated)	0.82	-1.2
Cc1ccc(C)c(NC(=O)NCc2c(-n3cccc3)sc3c2CCCC3)c1	0.03	-1.3

# Next section (4 carried over from the part before).
mol	TAR Tat displ	CDC25B-CDK2 inh
CCC(C)OC(=O)Cn1nnc2sc3c(c2c1=O)CCC(C)C3 (configuration not stated)	-0.42	0.07
O=C(c1nc(-c2ccc(Cl)cc2)n2c1CCCCC2)N1CCN(c2ncccn2)CC1	1.3	/
CC(C)CC(O)(c1ccc(O)cc1)C(CN1CCOCC1)c1ccccc1 (configuration not stated)	0.82	-1.2
Cc1ccc(C)c(NC(=O)NCc2c(-n3cccc3)sc3c2CCCC3)c1	0.03	-1.3
Cc1cc(C)nc(SCC(=O)N2c3ccccc3CCc3ccccc32)n1	-0.08	-1.7
OCC(O)Cn1c(COc2ccccc2)nc2ccccc21 (configuration not stated)	0.73	-1.6
Cc1cccc(NS(=O)(=O)c2cc(-c3csc(C)n3)ccc2C)c1	0.59	/
Cc1nn2c(C)c(C(=O)N3CCc4ccccc43)cnc2c1-c1ccccc1	-0.93	/
COc1ccc(-n2nnc(-c3nc(-c4ccccc4F)no3)c2N)cc1	-0.39	/
Cc1ccc2cccc(NC(=O)c3sc4ccccc4c3Cl)c2n1	-1.1	0.55
COc1ccc(-c2nc3c4c5c(sc4ncn3n2)CCCCC5)cc1OC	0.97	-0.24
Clc1ccc(CNc2cc(-c3ccccc3)nc3nncn23)cc1	0.66	-0.43
O=C1C(=O)N(c2ncc(S(=O)(=O)c3ccc([N+](=O)[O-])cc3)s2)C(c2ccc(F)cc2)/C1=C(\O)c1ccc(Cl)cc1 (configuration not stated)	/	0.99
CC(=O)O[C@@H]1CC2C(C)(C)[C@H](O)CC[C@]2(C)C2CC[C@@]3(C)[C@H](c4ccoc4)OC(=O)C4OC43[C@@]21C (some centres not stated)	1.9	/
O=C(Nc1nc(-c2ccccc2)cs1)c1c(-c2ccccc2)nc2n1CCS2(=O)=O	0.32	-8.3

# Compound activity as filed in PubChem BioAssay.
